Screening data from PubChem.
NS1 inh: inhibitors of influenza NS1 protein function. S. cerevisiae slowed by influenza A NS1, growth recovery by OD600. Potency, µM (titrated, usually from 46.1 µM), for inactives: top-dose activity, positive = more growth. 270,000 tested, 0.4% active. AID 2326; active means well fitted rising curve with a large enough effect; inconclusive means small, poorly fitted or top-dose-only effect; inactive means no such curve, though single readings can be large or run the other way; further: nearly all actives have a fitted effect of over 50% in size
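A cell-based growth assay was used: compounds that relieve NS1-induced slow growth of budding yeast raise OD600. Assay medium was yeast nitrogen base with ammonium sulphate and -URA supplement, pH 6.0, with 2% galactose.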
RE007 growth inh: less growth of the S. pombe RE007 Vpr strain; S. pombe RE007 Vpr strain, BacTiter-Glo ATP luminescence, 24 h; control for the full effect not named in the record; AID 651644; Potency, µM (highest dose often 92.2 µM), for the others: at the top dose activity change, negative = less growth; 360,000 tested, 0.21% active; active = well fitted falling curve with a large enough effect; inconclusive = small, poorly fitted or top-dose-only effect; inactive = no such curve, though single readings can be large or run the other way;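 further: on the % scale 0 is the no-effect control and ±100 the full control effect; nearly all actives have a fitted effect of over 50% in size; the assay follows cell death caused by Vpr and the record does not say whether a fall means rescue or toxicity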
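Fission yeast strain RE007, carrying one chromosomally integrated HIV-1 vpr copy, was seeded at OD 0.01 in PMG+AL medium with 23 nL pinned compound. After 24 h at 30 °C and 99% humidity, viability was read by BacTiter-Glo luminescence.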
SARS PLpro yeast: SARS-CoV PLP inhibition in yeast. S. cerevisiae expressing SARS-CoV PLpro, growth rescue; control for the full effect not named in the record. Potency, µM (series often up to 32.9 µM), for inactives: at the top dose activity, positive = growth rescue. 330,000 tested, 0.19% active. AID 485353; active means well fitted rising curve with a large enough effect; inconclusive means small, poorly fitted or top-dose-only effect; inactive means no such curve, though single readings can be large or run the other way; further: 0% is about no effect; nearly all actives have a fitted effect of over 55% in size; growth read by luminescence after 48 h
Cruzain inh Det: blocks cruzain activity in presence of Triton detergent | purified cruzain, Z-FR-AMC fluorescence, 0.01% Triton | Potency, µM, without a hit: max response, negative = inhibition, actives largely listed as inhibitors | AID 1478 | P25779 | 200,000 tested, 0.43% active;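 further: plate controls were neutral wells for no effect and buffer without enzyme for full effect; nearly all actives have a fitted effect of over 40% in size; top concentration of the series not given in the record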
Target sequence (P25779 123-467 limits assumed): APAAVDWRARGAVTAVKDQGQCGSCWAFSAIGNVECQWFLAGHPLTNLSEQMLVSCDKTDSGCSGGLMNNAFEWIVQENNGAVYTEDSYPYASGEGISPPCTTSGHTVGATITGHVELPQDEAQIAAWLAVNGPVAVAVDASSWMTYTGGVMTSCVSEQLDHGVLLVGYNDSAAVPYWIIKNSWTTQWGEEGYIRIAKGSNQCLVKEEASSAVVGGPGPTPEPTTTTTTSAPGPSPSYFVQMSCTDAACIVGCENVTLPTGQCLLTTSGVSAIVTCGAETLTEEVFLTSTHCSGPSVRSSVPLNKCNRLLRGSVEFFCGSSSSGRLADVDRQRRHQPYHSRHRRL
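Detergent-containing arm of a paired screen for aggregation-based inhibition: 0.01% Triton X-100 present. Cruzain at 1.5 nM cleaved 2 uM Z-FR-AMC at pH 5.5 with 5 mM DTT; AMC fluorescence gain over 60 s measured activity.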
LASV entry inh: blocks Lassa virus binding to or entry into cells; 300,000 tested, 1.2% active; Lassa virus pseudotype entry inhibition, cell reporter; control for the full effect not named in the record; AID 540256; Potency, µM (top dose mostly 37.9 µM), for the others: at the top dose activity change, negative = inhibition, actives largely listed as inhibitors; active means well fitted inhibition curve with a large enough effect; inconclusive means small, poorly fitted or top-dose-only effect, or effect the other way; inactive means flat fitted curve, though single readings scatter; tested in HEK293 cells; further: on the % scale 0 is the no-effect control and ±100 the full control effect; nearly all actives have a fitted effect of over 50% in size; luciferase read-out
StopGo reporter: lowers the luciferase signal of an FMDV 2A StopGo reporter; human cells with a luciferase reporter of 2A StopGo recoding; control for the full effect not named in the record; Potency, µM (doses to about 57.9 µM), inactives show at the highest dose signal change, negative = less light; 410,000 tested, 1.2% active; AID 1159524; active = well fitted falling curve with a large enough effect; inconclusive = small, poorly fitted or top-dose-only effect; inactive = no such curve, though single readings can be large or run the other way; tested in HEK293T cells; further: on the % scale 0 is the no-effect control and ±100 the full control effect; nearly all actives have a fitted effect of over 45% in size; luciferase light after 4 h
MARV entry inh: inhibitors of Marburg virus binding or cell entry | 300,000 tested, 1.8% active | Marburg virus pseudotyped entry inhibition, cell reporter; control for the full effect not named in the record; about a third of the inactives were read at about 46 µM | Potency, µM (top dose mostly 37.8 µM), for the others: top-dose activity change, negative = inhibition, usual class: inhibitors; active = well fitted inhibition curve with a large enough effect; inconclusive = small, poorly fitted or top-dose-only effect, or effect the other way; inactive = flat fitted curve, though single readings scatter; tested in HEK293 cells; about a fifth of its hits are not listed in these tables; further: on the % scale 0 is the no-effect control and ±100 the full control effect; luciferase read-out
Cruzain inh noDet: cruzain (T. cruzi) inhibition without detergent; P25779; purified cruzain, Z-FR-AMC fluorescence, no detergent; AID 1476; Potency, µM, for the others: max response, negative = inhibition, most hits filed as inhibitors; 200,000 tested, 2.3% active;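 further: plate controls were enzyme without inhibitor for no effect and buffer without enzyme for full effect; nearly all actives have a fitted effect of over 40% in size; top concentration of the series not given in the record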
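Detergent-free condition (0.00005% Triton X-100) in acetate buffer pH 5.5 with DTT. 1.5 nM enzyme and compound were pre-mixed 15 min, then 2 uM Z-FR-AMC substrate added; reaction progress from fluorescence change between first and third reads (60 s).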
Active calls of the source: *; ? = inconclusive; . = not tested or not shown; & = joins results of further samples; [ ] = dose if it differs, or a comment. Unless noted, the call rests on the fitted dose curve; in most records, active means well fitted curve in the direction sought with a large enough effect; inconclusive means small, poorly fitted or top-dose-only effect, or another doubt; inactive means no such curve, though single readings can be large; an effect the other way counts as inactive or inconclusive. Potency means the concentration at half of the fitted maximal effect. Compounds as they come. About 4.6% of those tested had a hit in this group.

SMILES	NS1 inh	RE007 growth inh	SARS PLpro yeast	Cruzain inh Det	LASV entry inh	StopGo reporter	MARV entry inh	Cruzain inh noDet
O=C(Cc1ccccc1)Nc1cc(Cl)ccc1Sc1ccccc1	24%	.	15%	-2.1%	7%	-10%	?	-3%
O=C(O)c1ccccc1C(=O)c1cccs1	3%	-9%	7%	2.2%	13%	0%	15%	-4%
Cc1cc(=O)oc2cc(NC(=O)c3ccccc3C(=O)O)ccc12	-1%	-5%	0%	.	-5%	-16%	5%	.
Cc1cc(NC(=O)CSc2nnc(Nc3ccccc3F)s2)no1	.	5%	5%	.	3%	36%[activator]	20%	.
Cc1c(NS(=O)(=O)CC23CCC(CC2=O)C3(C)C)c(=O)n(-c2ccccc2)n1C (stereo not drawn)	3%	10%	2%	-4.2%	?	-16%	-2%	4%
CC1=C(SCc2ccccc2)C(=O)c2ccccc2C1=O	.	?	.	.	?	?	?	.
CCc1cccc(NC(=O)CCNS(=O)(=O)c2ccc3[nH]c(=O)oc3c2)c1	2%	8%	0%	.	.	10%	.	.
COc1cc2cc(C)c(Br)c(OC)c2cc1OC	.	-9%	.	.	8%	-23%	-1%	.
Cc1[nH]c(=S)sc1Cc1ccc(F)cc1	-3%	12%	10µM*	-3.8%	4%	-9%	-1%	-3%
O=C(CCc1ccccc1)Nc1cc2c3c(c1)CC(=O)N3CCC2	.	-11%	-2%	.	-1%	0%	-6%	.
CCN1CCN(c2ccc(S(=O)(=O)N3CCOCC3)cc2NC(=O)c2ccccc2SC)CC1	.	-12%	-7%	.	?	-1%	-29%	.
Cc1cc(N2CCN(c3ccc(F)cc3)CC2)n2ncnc2n1	3%	-5%	0%	.	.	?	.	.
COc1cc(/C=N/N2CCN(Cc3ccc(Cl)cc3)CC2)cc(Br)c1O	-13%	-7%	-1%	.	.	-18%	.	.
Cc1ccc(NCCC(=O)c2cccs2)cc1C	1%	40µM*	-1%	.	12%	34%[activator]	.	.
Cc1ccccc1C(=O)NC(C)C1CC2CCC1C2 (stereo not drawn)	0%	-4%	-5%	.	16%	4%	25%[46.1 µM]	.
O=C(C1CCN(S(=O)(=O)c2cccc3nsnc23)CC1)N1CCCCC1	-2%	4%	1%	.	31%[46.1 µM]	17%	3%[46.1 µM]	.
CCc1ccc(S(=O)(=O)Nc2ccccn2)cc1	1%	16%	-10%	.	.	90%[activator]	.	.
Nc1nonc1-c1noc(COc2ccccc2Cl)n1	-7%	-19%	6%	0.0%	?	21%	-30%[46.1 µM]	3%
C(=C\c1ccccc1)/CNn1cnnc1	11%	3%	?	-5.4%	17%	-1%	-7%	11%
COc1ccc(NC(=O)C(=S)NC2CCCCC2)cc1	0%	0%	-3%	.	?	0%	?	.
Cc1cc(OCC(=O)Nc2cc(C(C)(C)C)on2)ccc1[N+](=O)[O-]	0%	-2%	?	.	0%	8%	26%	.
CC(OC(=O)C1COc2ccccc2O1)C(=O)N(C)c1ccccc1 (stereo not drawn)	.	3%	1%	.	?	0%	3%[14.2 µM]	.
CC(C)=C1C(=O)NN(c2cccc(Cl)c2)C1=O	2%	8%	20%	-3.1%	-4%	5%	-10%	-1%
CCC(C)NC(=O)C1CCN(C(=O)N(C)C)CC1 (stereo not drawn)	-5%	2%	4%	3.8%	2%	.	?	-11%
COc1ccc(C(=O)CSc2nnc(Cc3ccccc3)o2)cc1	-5%	-5%	1%	-5.5%	?	15%	0%	1%
Cc1nccn1CC(=O)O	5%	5%	2%	1.9%	?	-4%	-11%	-3%
CCCCOCCCNC(=O)N[C@H](C(=O)O)C(C)CC (stereo partly drawn)	2%	0%	2%	.	8%	-10%	7%	.
COc1ccc(OC)c2[nH]c(C(=O)O)cc12	-40%	0%	-10%	0.0%	4%	4%	10%	11%
CC(C)CCn1c(SCC(=O)Nc2ccccc2C(F)(F)F)nc2nccnc2c1=O	2%	8%	3%	.	.	-21%	.	.
O=C(NC1CCCCC1)C1CC(=O)N(CCc2ccccc2)C1 (stereo not drawn)	2%	-11%	8%	4.1%	?	4%	-2%	2%
CCOc1ccc(-c2nc(N)nc(C)c2-c2ccc(OC)c(OC)c2)c(O)c1	-11%	9%	-1%	-3.5%	-3%	-28%	?	-6%
CCOc1ccc(NC(=O)c2cc(S(=O)(=O)N3CCCC3)c[nH]2)cc1	.	.	.	-3.4%	2%[46.1 µM]	12%	.	13%
CC(C)CN1CCN(Cc2ccc(CN3CCCCC3)s2)CC1CCO (stereo not drawn)	-5%	-18%	0%	.	-13%[46.1 µM]	14%	?	.
Cc1cc(C(=O)COC(=O)CCc2nc3ccccc3s2)c(C)n1C	?	-22%	-3%	-9.0%	?	12%	?	5%
Fc1ccc(CSc2ccc(-c3cccs3)nn2)cc1	-4%	-15%	20%	-3.3%	?	32%[activator]	?	-6%
CCOc1ccccc1NC(=O)c1cc2c(=O)oc3ccccc3c2s1	.	.	.	1.3%	?	-5%	.	-12%
COc1ccc(/C=C2\SC(=S)N(CCCC(=O)Nc3ccc(C(=O)O)cc3)C2=O)cc1OC	26%	1%	2%	.	4%	-11%	-4%	.
CC(=O)Nc1ccc(S(=O)(=O)N2CCC(N3CCCCC3)CC2)cc1	13%	-7%	13%	.	3%	-13%	6%[46.1 µM]	.
CCc1ccc(-c2cc(C)no2)cc1S(=O)(=O)Nc1cccc(CN2CCCC2)c1	7%	-14%	20%	.	.	3%	.	.
CC1CC(C)CN(C(=O)CSc2ncnc3sccc23)C1 (stereo not drawn)	.	10%	5%	.	-4%	-16%	?	.
COC(=O)c1cc(NC(=O)CSc2ncn[nH]2)ccc1Cl	5%	6%	-7%	.	7%[46.1 µM]	-4%	?	.
O=C(NCc1ccco1)C1CC(c2ccc(Cl)cc2)=NO1 (stereo not drawn)	1%	-16%	0%	.	-4%[46.1 µM]	20%	-5%[46.1 µM]	.
O=C(CSc1ncnc2c1oc1ccccc12)Nc1nccs1	3%	22%	1%	.	.	-9%	.	.
COC(=O)Cc1c(C)c2ccc(OCC(=O)N(C)C)cc2oc1=O	-5%	15%	21%	-6.4%	-7%	17%	?	21%
CN(C)c1ccc(CNc2ncn[nH]2)cc1	5%	-11%	1%	.	.	4%	.	.
O=C(NCc1ccco1)c1ccc(CS(=O)Cc2cccc(Cl)c2)o1 (stereo not drawn)	0%	-6%	3%	.	?	-1%	-30%[46.1 µM]	.
CC(C)CN(C(=O)c1cccc(Cl)c1)c1c(N)n(CC(C)C)c(=O)[nH]c1=O	5%	-17%	-4%	.	8%[46.1 µM]	18%	-1%[46.1 µM]	.
COc1ccc(C(CCN2CCCCC2)c2c(OC)cc(OC)c3c(-c4ccccc4)cc(=O)oc23)cc1 (stereo not drawn)	2%	3%	0%	.	.	18%	.	.
COc1ccc(S(=O)(=O)N2CCOCC2)cc1NC(=O)c1cccc2c(=O)c(C)c(-c3ccccc3)oc12	5%	6%	5%	-3.9%	-12%	-10%	?	?
Cc1ccc(C)c(N2N=C(C(=O)Nc3nccs3)CCC2=O)c1	.	0%	4%	.	4%	7%	-15%[46.1 µM]	.
Remaining list, next part.
SMILES	NS1 inh	RE007 growth inh	SARS PLpro yeast	Cruzain inh Det	LASV entry inh	StopGo reporter	MARV entry inh	Cruzain inh noDet
Cc1c(Cl)cccc1-n1ncc(C(=O)NC2CCCC2)c1C1CCN(C(=O)OC(C)(C)C)CC1	.	.	.	-1.2%	?	-16%	.	-13%
COc1ccc(S(=O)(=O)N2CCC(C(=O)NC3CC3)CC2)cc1OC	22%	-28%	3%	.	-3%	-20%	-1%	.
CC(NC(=O)CCc1ccc(S(=O)(=O)NC2CCCCC2)cc1)c1ccccc1 (stereo not drawn)	-3%	14%	-4%	2.6%	?	5%	-16%	3%
Cc1ccc2ncccc2c1	.	-5%	-8%	-0.1%	.	0%	.	-6%
Cn1c(SCc2ccccc2Cl)nc2ccccc21	-58%	-29%	-24%	-3.1%	13%	51%[activator]	-18%	-3%
Cc1nc(Cl)c(S(N)(=O)=O)c(C)c1Cl	.	31%	1%	.	-4%[46.1 µM]	-2%	18%[46.1 µM]	.
O=C(O)c1ccccc1-c1ccccc1C(=O)Nc1ccccc1	5%	-2%	0%	-2.3%	20%	-21%	17%	-4%
COc1cc2c(cc1OC)C(C1C(=O)CCCC1=O)N(C(=O)CCl)CC2 (stereo not drawn)	11%	-8%	0%	-3.8%	-2%	5%	-1%	8%
CC(C)c1ccccc1NC(=O)C(Cc1c[nH]c2ccccc12)NC(=O)OC(C)(C)C (stereo not drawn)	.	.	.	-9.3%	?	-22%	?	-15%
CCCc1cc(=O)[nH]c(SC(CC)C(=O)Nc2ccccc2C#N)n1 (stereo not drawn)	2%	14%	-1%	-0.6%	3%	-14%	3%	-6%
O=C(CSc1ncccc1C(=O)O)NCCC1=CCCCC1	1%	-1%	2%	1.4%	-1%	6%	-13%	2%
Cc1nn(C)cc1S(=O)(=O)NC1CCCC1	-1%	1%	-1%	.	1%	10%	2%[46.1 µM]	.
Cc1nn(-c2ccccc2)nc1CNC(=O)C(C)Cc1ccccc1 (stereo not drawn)	-13%	21%	14%	0.4%&-0.5%	-3%	4%	17%	-8%&-3%
COc1ccc(/C=N/OCC(=O)OCC(=O)N(C)c2ccccc2)cc1	.	28%	4%	.	2%	7%	14%	.
CCOC(=O)NC(O)C(=O)c1ccc(F)cc1 (stereo not drawn)	.	17%	0%	.	0%	-11%	-10%	.
O=C(COC(=O)[C@H](Cc1ccccc1)NC(=O)c1cccs1)Nc1cc(F)ccc1F	-60%	-28%	-21%	20µM*	-9%	4%	25%	?
Cc1ccc(/C=C/c2onc(C)c2S(=O)(=O)N2CCC(C(=O)NCc3ccc(Cl)cc3)CC2)cc1	.	.	.	-1.0%	25%[46.1 µM]	0%	.	0%
Cc1nc(N)sc1-c1ccccc1	.	-4%	.	.	4%[46.1 µM]	5%	19%[46.1 µM]	.
